# Beta apoptosis: blocks beta cell apoptosis. INS-1E cytokine-induced death, ATP luminescence, 48 h; percent of positive-control rescue, neutral wells zero. protection from apoptosis, % (no concentration beside the values). 0.8% of 300,000 active. AID 435005;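 active = all replicates at 75% or more, or half of them and the mean; inconclusive = half reach 75% but not the mean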;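 note: 0% = cytokine-treated negative control wells and 100% = positive control rescue; higher means more ATP so stronger rescue from cytokine killing; wells of about 40 µL received 100 nL stock; the first replicate is given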
# MLL AF4-AF9 inh: blocks AF4 peptide binding to human AF9 | P42568 | AlphaScreen, biotin-AF4 peptide binding to FLAG-AF9 | inhibition, % at 10 µM | 0.47% of 350,000 active;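 active = every replicate reaching a set inhibition limit, whatever the replicate mean, cut at about 25% in these data; inconclusive = mean inhibition reaches that limit but some replicates miss it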;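 note: 0% = plate neutral control median and 100% = total signal loss; the record names both 10 and 1 µM as test concentration; the first replicate is given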
# Target sequence (P42568 whole entry, looked up): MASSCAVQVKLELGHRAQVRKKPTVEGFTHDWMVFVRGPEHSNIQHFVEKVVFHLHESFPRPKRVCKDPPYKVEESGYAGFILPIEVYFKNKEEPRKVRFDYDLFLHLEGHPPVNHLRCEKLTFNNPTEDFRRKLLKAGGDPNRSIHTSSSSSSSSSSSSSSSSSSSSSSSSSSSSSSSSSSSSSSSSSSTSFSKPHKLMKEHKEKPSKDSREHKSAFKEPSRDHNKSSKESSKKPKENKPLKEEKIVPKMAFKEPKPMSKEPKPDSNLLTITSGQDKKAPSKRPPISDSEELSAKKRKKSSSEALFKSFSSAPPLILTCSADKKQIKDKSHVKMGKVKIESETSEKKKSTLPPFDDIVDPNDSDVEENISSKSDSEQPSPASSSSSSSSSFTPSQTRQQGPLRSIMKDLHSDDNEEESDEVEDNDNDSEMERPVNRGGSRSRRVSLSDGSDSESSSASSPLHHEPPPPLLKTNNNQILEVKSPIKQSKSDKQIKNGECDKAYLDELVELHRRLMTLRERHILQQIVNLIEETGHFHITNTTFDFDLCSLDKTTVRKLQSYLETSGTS
# Calb FLC: affects C. albicans growth with fluconazole; growth inhibition, % (concentration not given with the values); 0.57% of 300,000 active; C. albicans CaCi-2 (fluconazole-resistant clinical isolate) + fluconazole, Alamar Blue growth, 48 h;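 active = most replicates above 75%; inconclusive = exactly half above 75%; inactive = most below 75%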;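 note: all wells also contain fluconazole at 8 µg/ml as a sub-toxic cotreatment; 0% = median of DMSO wells and 100% = median of geldanamycin control wells; wells of about 8 µL received 7.5 nL stock; the first replicate is given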
# T cruzi inh: blocks replication of Trypanosoma cruzi. inhibition, % (concentration not given with the values). T. cruzi beta-gal in NIH3T3, luminescence, 90 h. AID 1885. 1.4% of 300,000 active;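 active = mean inhibition across valid replicates above about 55%, limit read from the data; inconclusive = mean below that limit but half or more replicates reach it; inactive = mean below it, under half of replicates reach it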;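 note: signal also drops with host cell toxicity which is not excluded here; 0% = plate median of DMSO wells and 100% = zero luminescence signal; higher percent means less beta-gal luminescence so fewer parasites; stock transfer was 50 nL into about 50 µL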
# Bfl-1 A1 inh: inhibitors of the anti-apoptotic protein A1, read as caspase activation; MEF A1-2A-BIM cells, Caspase-Glo 3/7 luminescence, 3 h; percent of clofoctol response, vehicle zero; caspase activation, % (no concentration beside the values); 0.066% of 330,000 active;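 active = over half of replicate activation scores above 10%, or exactly half above 10 with the replicate mean above 10; inconclusive = replicate mean below 10 yet half the replicates above 10; inactive = over half of replicates below 10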;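 note: wells of about 30 µL received 50 nL stock; many hits fall short of the cut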
# RanGTP-Imp inh: disruptors of Ran-importin-beta complex formation – biochemical, FRET, CFP-Ran, YFP-importin-beta, homogeneous, primary screen; AID 2216; 1.1% of 300,000 active; inhibition, % (no concentration beside the values); cell-free CFP-Ran/YFP-importin-beta FRET ratio;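 active = most replicates above 15%; inconclusive = exactly half above 15%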;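 note: 0% = DMSO wells and 100% = Ran loaded with GDP instead of GTP; wells of about 40 µL received 100 nL stock; the first replicate is given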
# rRNA inh HTS: inhibitors of bacterial rRNA selective over humanized ribosomes | GFP signal change (wild-type ribosome), % (no concentration beside the values) | 1.6% of 350,000 active | E. coli WT GFP vs humanized-ribosome RFP mutants, fluorescence, 24 h; active compounds read low; DMSO median 0, no signal -100 | AID 720706;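 active = significant combined selectivity score with lowered wild-type GFP, culture density cut under 30%, mutant RFP and density less affected; inactive = any of these conditions unmet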; note: one replicate is shown; some compounds called inactive have numbers as strong as hits
# Vif A3G: HIV-1 Vif–A3G interaction blockers – biochemical, TR-FRET, GST-Vif 1-94, biotin-A3G peptide, dose response retest, primary screen (AID 1117319); inhibition, %; hits with a dose series show IC50 in µM; 0.57% of 260,000 active; TR-FRET GST-Vif / biotin-A3G peptide binding; higher % means a stronger effect; test concentration not given here; strong numbers were not always called active;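 active = above the screen mean plus three standard deviations and confirmed in dose response; inconclusive = results disagree or hit not tested in dose response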;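 note: Vif residues 1-94 fused to GST binding biotinylated APOBEC3G peptide 110-148; 0% = full assay without inhibitor and 100% = GST in place of GST-Vif; retest series ran down from 100 µM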
# rRNA inh HTS OD600: further read-out of rRNA inh HTS, marked with its call; OD600 change, %; measured here: OD600 growth;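 optical density of the mix in the first replicate; 0 = DMSO median and -100 = no signal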
# rRNA inh HTS RFP: further read-out of rRNA inh HTS, marked with its call; RFP signal change, %; measured here: RFP humanized mutant strains;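 first replicate; 0 = DMSO median and -100 = no signal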
# An asterisk follows results filed as active; ? = inconclusive; · = no result given.
SMILES,Beta apoptosis,MLL AF4-AF9 inh,Calb FLC,T cruzi inh,Bfl-1 A1 inh,RanGTP-Imp inh,rRNA inh HTS,rRNA inh HTS OD600,rRNA inh HTS RFP,Vif A3G
CN(CC(=O)NCCc1ccc(F)cc1)Cc1ccccc1,-6,-4.2,-13,-8,1.3,3.5,5,13,1.3,·
CCC1(C)Cc2c(C#N)c(N)n(-c3ccccc3)c(=S)c2CO1 (stereo unspecified),-5,0.8,-3,21,0.0,-9.5,13,2,6.8,32%
O=C(c1cccs1)N1CCN(C(=O)C(c2ccccc2)c2ccccc2)CC1,-3,·,25,0,0.3,?,·,·,·,-2%
COc1ccc(-c2csc(N3CCN(Cc4ccc5c(c4)OCO5)CC3)n2)cc1,0,4.6,-49,40,-0.4,1.6,-1,-2,7.5,-11%
Oc1c(Br)cc(Br)cc1C=Nc1cccc2ncccc12,-13,-3.9,-11,-9,-0.1,-10,-5,3,19,·
Cc1ccccc1CC(=O)N1CCN(S(=O)(=O)c2cccs2)CC1,-2,-1.7,6,-16,0.1,0.8,4,-2,1.7,·
CCOC(=O)C1CCCN(C(=O)c2sc3nc(-c4ccc(OC)cc4)cn3c2C)C1 (stereo unspecified),0,·,-3,-8,1.1,-4.9,-3,-9,-1.9,-1%
CCCNC(=O)c1ccccc1NS(=O)(=O)c1ccc(OC)c(OC)c1,-1,·,14,-3,0.9,-1.5,·,·,·,8%
COc1ccc(OC)c(CNc2ncc(-c3ccc(F)cc3)n2C)c1,·,13,-23,4,·,-3.0,4,2,2.6,·
Nc1ccc(Oc2ncccn2)c(Cl)c1,-4,-0.4,0,0,0.0,-2.2,6,15,-3.3,8%
O=C(C1=C(O)C(=O)N(CCCn2ccnc2)C1c1ccccc1)c1ccco1 (stereo unspecified),-4,·,10,5,0.7,0.6,·,·,·,·
CNC[C@H](Cc1ccccc1)NC[C@@H](Cc1cccc2ccccc12)NCCc1ccc(C)cc1,107*,45*,111*,48,0.6,0.1,-49,-67,-21,·
Cn1c(SCC(=O)Nc2cccc(NC(=O)c3cccs3)c2)nnc1-c1ccncc1,10,·,9,·,-0.8,·,·,·,·,-2%
Oc1ccc[n+](CC(O)c2ccccc2)c1 (stereo unspecified),5,-3.0,0,-10,-0.1,?,3,9,-1.5,·
Cc1nc2ncnn2c(C)c1CCC(=O)NCCCN1CCN(c2cccc(Cl)c2)CC1,-2,·,4,-1,1.2,1.7,·,·,·,-3%
Cc1c(Cl)c(C(=O)NNC(=S)Nc2ccccc2)nn1C,-3,·,-4,-6,-1.9,1.5,·,·,·,14%
CCn1nc(C)c(/C=N/NC(=O)c2ccoc2C)c1C,9,·,9,-15,0.0,1.2,·,·,·,-5%
CN(CCC#N)c1ccc(/C=C(\C#N)c2ccccn2)cc1,5,2.1,5,-7,-9.3,-27,-9,-36,-10.0,-8%
O=C(Nc1ccc(F)cc1)C(Sc1nnc2ccccn12)c1ccccc1 (stereo unspecified),5,49*,?,-12,-0.6,1.6,-12,-9,7.8,-6%
N#CC(c1ccccc1)(c1ncc(C(F)(F)F)cc1Cl)N1CCOCC1 (stereo unspecified),-1,·,-5,-3,-0.9,-0.8,·,·,·,-1%

# Exported with bars between the fields: entries from further up.
canonical_smiles | Beta apoptosis | MLL AF4-AF9 inh | Calb FLC | T cruzi inh | Bfl-1 A1 inh | RanGTP-Imp inh | rRNA inh HTS | rRNA inh HTS OD600 | rRNA inh HTS RFP | Vif A3G
O=C(c1cccs1)N1CCN(C(=O)C(c2ccccc2)c2ccccc2)CC1 | -3 | · | 25 | 0 | 0.3 | ? | · | · | · | -2%
COc1ccc(-c2csc(N3CCN(Cc4ccc5c(c4)OCO5)CC3)n2)cc1 | 0 | 4.6 | -49 | 40 | -0.4 | 1.6 | -1 | -2 | 7.5 | -11%
Oc1c(Br)cc(Br)cc1C=Nc1cccc2ncccc12 | -13 | -3.9 | -11 | -9 | -0.1 | -10 | -5 | 3 | 19 | ·
Cc1ccccc1CC(=O)N1CCN(S(=O)(=O)c2cccs2)CC1 | -2 | -1.7 | 6 | -16 | 0.1 | 0.8 | 4 | -2 | 1.7 | ·

# An excerpt from above in order of their number in RanGTP-Imp inh, high to low:
SMILES,RanGTP-Imp inh
O=C(Nc1ccc(F)cc1)C(Sc1nnc2ccccn12)c1ccccc1 (stereo unspecified),1.6
Cc1c(Cl)c(C(=O)NNC(=S)Nc2ccccc2)nn1C,1.5
CCC1(C)Cc2c(C#N)c(N)n(-c3ccccc3)c(=S)c2CO1 (stereo unspecified),-9.5

# Next part.
SMILES,Beta apoptosis,MLL AF4-AF9 inh,Calb FLC,T cruzi inh,Bfl-1 A1 inh,RanGTP-Imp inh,rRNA inh HTS,rRNA inh HTS OD600,rRNA inh HTS RFP,Vif A3G
CCOc1ccc2[nH]c(=O)c(CN(CCCO)C(C)=O)cc2c1,-1,·,0,-8,0.4,-2.6,·,·,·,16%
CCc1ccc(C(=O)OCC(=O)c2c(N)n(CC(C)C)c(=O)n(C)c2=O)cc1,·,0.0,-34,15,0.7,0.6,-21,-32,-2.6,4%
Nc1nc(C(=O)N2CCOCC2)nn1C(=O)c1ccc(Cl)cc1,-6,-1.6,2,-7,-0.6,-2.0,7,9,-0.8,-6%
CC(C)[C@H](NS(=O)(=O)c1cccc(C(F)(F)F)c1)C(=O)OCC(N)=O,-3,0.4,3,-9,-0.8,·,8,11,3.3,31%
CN(C)c1c(F)cc(C(=O)NC(=O)NCc2cccnc2)cc1F,3,-1.7,-17,-6,-0.2,-2.4,1,5,1.2,·
COc1ccc(/C(N)=N/OC(=O)c2cccc([N+](=O)[O-])c2)cc1OC,-6,·,-1,3,1.0,-1.3,·,·,·,-4%
COCCNC(=O)CSc1ncnc2sc(-c3ccccc3)cc12,9,-2.0,-1,-10,1.0,?,23,-5,2.4,2%
CC1CCN(CC(=O)Nc2ccc(S(=O)(=O)N3CCCCC3)cc2)CC1,-2,2.2,-11,-9,-0.4,0.6,-2,1,-0.3,-16%
CC(C)Oc1ccc(CNC(=S)N/N=C/c2ccc([N+](=O)[O-])cc2)cc1,3,2.9,13,48,1.8,-2.4,5,0,-5.6,16%
O=C(NC1CCOCC1)C1CCC(=O)N(CCc2ccc(Cl)cc2)C1 (stereo unspecified),-1,-0.5,2,-2,0.0,-0.4,9,18,-0.2,·
CC(C)(C)OC(=O)CNC(=O)c1[nH]cnc1C(=O)NCCCCCNC(=O)OC(C)(C)C,8,9.0,13,5,2.1,-1.4,13,13,-2.5,·
COc1ccc(CN(C(=O)c2cc(=O)c3ccccc3o2)C2CCS(=O)(=O)C2)cc1OC (stereo unspecified),·,1.5,8,-4,·,-3.5,5,6,-4.3,-4%
C#CCOCCOCCOCCNc1nc(N2CCN(C(=O)[C@H](CCCCN)n3cc(C(N)CC(C)C)nn3)CC2)nc(N2CCN(C(=O)[C@H](CCC(=O)O)n3cc(C(N)[C@H](C)CC)nn3)CC2)n1 (stereo partly specified),2,·,20,-15,1.2,0.1,·,·,·,3%
O=C1CC(N2CCN(c3cccc(C(F)(F)F)c3)CC2)C(=O)N1c1ccc(F)cc1 (stereo unspecified),-1,·,-1,3,3.1,4.3,·,·,·,-6%
O=S(=O)(NC1=NCCC1)c1cccc(NS(=O)(=O)c2ccc(F)c(Cl)c2)c1,-6,-0.7,·,·,1.7,·,5,5,1.3,8%
CCOc1ccc(C(CC(=O)O)NC(=O)c2cccs2)cc1 (stereo unspecified),-8,-2.2,-2,-14,-0.3,-0.4,12,-3,-6.2,?
CCCCC1=NC2(CCCC2)C(=O)N1Cc1ccc(-c2ccccc2-c2nn[nH]n2)cc1,2,·,·,-7,1.1,3.5,·,·,·,-9%
COc1cc(NC(=O)c2ccc(F)cc2)c(OC)cc1Cl,·,·,8,-26,0.2,1.3,·,·,·,12%
O=C1NCCCC1C(=O)Nc1ccccc1C(F)(F)F (stereo unspecified),-7,·,4,-19,0.7,-1.4,·,·,·,1%
CCOC(=O)N1CCC(=NNC(=O)COc2cccc(C)c2)CC1,1,0.8,-15,-8,1.7,1.7,-6,-1,4.4,16%
COc1ccccc1CNc1ncnc2c1cnn2-c1ccccc1,-1,-2.5,3,-3,-0.3,4.4,-4,-47,-3.6,·
Cc1cc(C)nc(SCC(=O)c2ccc(O)c(O)c2)n1,2,-16,-1,-27,0.7,0.5,14,7,3.1,·
CC(O)C(=O)NCCOCCOCCNC(=O)C(C)O (stereo unspecified),-1,·,-2,-3,0.8,-1.5,·,·,·,-4%
CCOC(=O)CSc1nn(-c2ccccc2)c(=S)s1,4,1.0,-15,8,-0.1,5.1,-19,-34,-3.0,·
COc1cc(NC(=O)C2=C(N3CCOCC3)/C(=C\c3ccc(Br)cc3)CC2)cc(OC)c1OC,0,·,-1,29,-0.3,2.4,·,·,·,?
Cc1noc(C)c1COc1ccc(C(=O)N2CCC(C(N)=O)CC2)cc1,0,1.2,·,·,-1.0,·,-3,-9,-2.5,·
O=C(c1cc2cc(Cl)ccc2[nH]1)N1CCN(c2ccccn2)CC1,·,-1.0,-7,-5,0.5,7.1,13,8,-0.3,-19%
CCOc1ccccc1NC(=O)CCNS(=O)(=O)c1cccc2nsnc12,0,1.5,-1,4,-0.5,3.2,-6,-11,1.2,·
CCC(=O)Nc1cccc(C2=NOC3(C2)C[C@@H](C(N)=O)N(C(=O)CC)C3)c1 (stereo partly specified),-4,-3.5,-3,-24,0.4,-0.1,7,24,4.1,3%
COc1ccc(S(=O)(=O)N2CCCC(C(=O)NCc3ccncc3)C2)cc1Cl (stereo unspecified),-6,·,3,-21,-1.2,-0.6,·,·,·,5%
COc1ccc(NS(=O)(=O)c2cc(NC(=O)c3cc(=O)c4ccccc4o3)ccc2OC)cc1,5,-2.0,-1,22,0.0,-3.1,·,·,·,-8%
O=C(CCSc1nc2ccccc2o1)Nc1ccccc1,-4,0.8,30,-13,0.0,4.0,-10,-13,-1.3,·
CC1=C(C(=O)Nc2ccc(Cl)cc2C(=O)N2CCC(C(N)=O)CC2)SCCO1,-8,-1.0,1,-10,-1.6,8.0,0,15,0.1,-16%
O=C1Nc2ccccc2CCC1Sc1nnc(-c2ccc(Cl)cc2)s1 (stereo unspecified),-7,·,5,44,-0.3,-3.7,·,·,·,-3%
COc1ccc(NC(=O)N2CCCC2C(=O)Nc2cccc(C)c2C)cc1 (stereo unspecified),-6,-1.2,-11,-5,-0.2,-4.0,3,3,-3.9,·
Cc1[nH]c(C(=O)N/N=C/c2ccc(C(=O)O)cc2)c(C)c1C(=O)N/N=C/c1ccc(C(=O)O)cc1,5,·,-1,-13,-0.4,4.0,·,·,·,·
C=CCOc1cccc(/C=C2\C(=O)N(Cc3ccc(C)cc3)C(C)=C2C(=O)OC)c1,12,0.6,2,9,0.8,-0.3,6,12,-0.5,·

# Not all compounds are listed; rates above refer to the full screens.
